# Mtb hypoxia inh: inhibitors of hypoxia-regulated fluorescent reporter in Mycobacterium tuberculosis; M. tuberculosis hypoxia-regulated fluorescent reporter, fluorescence; fluorescence inhibition, % (no concentration beside the values); actives 0.1% (n = 300,000);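 active means 35 to 45% if threefold the growth effect, above 45% if 1.5-fold the growth effect; inactive means the rest, general growth blockers included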;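 further: wells of about 50 µL received 100 nL stock; 0% = vehicle wells and 100% = reference inhibitor wells; whole bacteria with a GFP reporter of the hypoxia response; strong numbers were not always called active; many hits fall short of the cut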
# BJeLR viability: BJeLR cell viability loss; inhibition, % (no concentration beside the values); BJeLR (HRASV12) viability, CellTiter-Glo ATP luminescence, 48 h; reference of the scale not given here; actives 0.17% (n = 300,000); AID 1554;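 active means replicate mean above 50%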;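 further: 50 nL library stock added to about 25 µL; numbers are from one replicate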
# Sa RN4220 lethal: S. aureus RN4220 growth inhibition. actives 0.33% (n = 330,000). inhibition, % (test concentration not listed). OD600, 16 h. AID 1259311;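 active means z-score of -3 or lower and OD600 up to 0.18 on both plates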;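 further: plate controls were untreated cells for no effect and reference antibiotic for full effect; stock transfer was 100 nL into about 80 µL; one replicate is shown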
# Bead autofluor: counter-screen for toxin protease inhibitors: compound fluorescence | compound autofluorescence counterscreen, microsphere flow cytometry; hits give high values | AID 624483 | actives 3.1% (n = 360,000) | fluorescence intensity (no concentration beside the values);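 active means at least 3 SD above the mean of all compounds, about 16000 in these data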;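 further: 100 nL of 1 mM stock went into each well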
# ugtP null kill: growth inhibition of S. aureus ugtP deletion strain | S. aureus RN4220 ugtP deletion, OD600 growth, 16 h; some inactives read as strong as hits | growth inhibition, % (test concentration not listed) | actives 0.54% (n = 330,000) | AID 1259309;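 active means z-score under -3 and OD600 up to 0.15 on both plates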;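 further: plate controls were untreated wells for no effect and antibiotic for full effect; wells of about 80 µL received 100 nL stock; the first replicate is given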
# PrP UTR inh: inhibition of PrP 5' UTR reporter expression; cell-based PrP 5' UTR mRNA reporter, plate reader; inhibition, % (test concentration not listed); actives 0.35% (n = 340,000);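 active means every replicate at 50% or more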;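 further: 0 = median of the neutral control wells; tested in H4 reporter cells; numbers are from one replicate; inactives centre near -14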
# Mtb hypoxia inh growth: also measured in Mtb hypoxia inh; calls as there; growth inhibition, %; measured here: M. tuberculosis growth (absorbance);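 0% = vehicle and 100% = reference antibiotic; read after six days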
# * = called active by the depositor; x = no result given.
1: O=C(c1ccc(CS(=O)(=O)c2ccc(Br)cc2)o1)N1CCCC1
2: CCCOc1ccc(N2C(=O)C3C4C=CC(CC4)C3C2=O)cc1 (centres undefined)
3: O=C(O)c1cccc(NC(=S)NCc2ccccc2)c1
4: CCCNC(=O)CN(c1cccc(F)c1)S(C)(=O)=O
5: CC1(C)CC(=O)C2=C(C1)Nc1ccccc1N1C(=O)c3ccccc3C21 (centres undefined)
6: COCCn1c(SC(C)C(=O)NCC2CCCO2)nc2sc3c(c2c1=O)CCC3 (centres undefined)
7: COc1ccc(CN2CCN(CCc3ccccc3)C(CCO)C2)c(Cl)c1OC (centres undefined)
8: COc1ccc(Cl)cc1N(CC(=O)NN=Cc1ccc(OC(C)C)cc1)S(=O)(=O)c1ccc(C)c([N+](=O)[O-])c1
assay / entry,1,2,3,4,5,6,7,8
Sa RN4220 lethal,-0.1,4.7,4.5,3.2,5.3,3.7,4.3,2.1
Bead autofluor,5552,3066,3260,10369,7784,5332,3490,x
Mtb hypoxia inh,x,9,-1,5,-1,4,13,6
BJeLR viability,1,5,2,1,2,-16,2,x
Mtb hypoxia inh growth,x,-5,8,3,-2,6,4,1
PrP UTR inh,-21,-19,-10,-4,-17,-14,-13,x
ugtP null kill,3,16,2,3,-16,3,7,0

9: CN(C)c1ccc(C=NNC(=O)c2cccc(N3CCCC3=O)c2)cc1
10: COc1ccc(Br)cc1CNC(=O)Cc1c(C(=O)O)[nH]c2ccc(Cl)cc12
11: COc1cc(OC)c2c(-c3cccc(-c4ccc(C#N)cc4)c3)cc(=O)oc2c1
12: C/C(=N\NC(=O)c1cccc(N/N=C(\C)c2ccncc2)c1)c1ccncc1
13: Cc1c(NC(=S)NC(C)(C)C)c(=O)n(-c2ccccc2)n1C
14: CCN(CC1CCCN(CCc2cccc(F)c2)C1)C(=O)c1cc2ccccc2o1 (centres undefined)
15: COc1ccc(C=NNC(=O)CC2N=C(Cc3ccccc3)NNC2=O)cc1OC (centres undefined)
16: CN(C[C@H](Cc1ccccc1)N(C[C@H](Cc1ccccc1)N(CC1(c2ccccc2)CC1)N=O)N=O)N=O
assay / entry,9,10,11,12,13,14,15,16
Sa RN4220 lethal,-0.4,12,-0.3,x,0.6,6.1,2.3,x
Bead autofluor,x,3635,2911,2310,4534,7932,x,3038
Mtb hypoxia inh,-8,0,6,x,-1,1,12,x
BJeLR viability,x,-5,x,-10,-5,3,x,4
Mtb hypoxia inh growth,-5,0,5,x,6,10,-3,x
PrP UTR inh,x,-25,-50,-97,-7,-11,x,-23
ugtP null kill,-2,-14,10,x,-1,4,2,x

17: CC(NC(=O)c1cc2cc([N+](=O)[O-])ccc2oc1=O)C1CCCO1 (centres undefined)
18: Cc1nc2ccccc2n1CC(=O)c1ccccc1
19: CC1Oc2ccccc2N(CC(=O)c2cccc(Cl)c2)C1=O (centres undefined)
20: CCOC(=O)N1CCN(C(=O)c2cc3cc(F)ccc3[nH]2)CC1
21: CC(C)CN1CCN(Cc2cnc(-c3ccc(Cl)cc3)nc2)CC1CCO (centres undefined)
22: CC(C)(CNC(=O)c1cc([N+](=O)[O-])ccc1N1CCC(Cc2ccccc2)CC1)N1CCOCC1
23: COC(=O)c1ccccc1NC(=O)NCc1ccc2c(c1)OCO2
24: Cc1nn(Cc2ccc(Cl)cc2)c(C)c1NC(=O)CCCn1nc([N+](=O)[O-])c(Cl)c1C
assay / entry,17,18,19,20,21,22,23,24
Sa RN4220 lethal,4.6,5.5,4.3,2.0,0.9,3.9,2.7,-7.9
Bead autofluor,4614,3333,19669*,3291,4621,3986,4537,7684
Mtb hypoxia inh,-9,-5,11,7,9,-8,8,1
BJeLR viability,7,2,14,-1,6,x,1,-1
Mtb hypoxia inh growth,2,-12,6,2,1,6,5,-4
PrP UTR inh,-19,-25,2,-30,-22,-2,-9,-7
ugtP null kill,8,13,-9,15,3,-5,1,-5

# In another format: results already given.
no.	structure	Sa RN4220 lethal	Bead autofluor	Mtb hypoxia inh	BJeLR viability	Mtb hypoxia inh growth	PrP UTR inh	ugtP null kill
19	CC1Oc2ccccc2N(CC(=O)c2cccc(Cl)c2)C1=O (centres undefined)	4.3	19669*	11	14	6	2	-9
20	CCOC(=O)N1CCN(C(=O)c2cc3cc(F)ccc3[nH]2)CC1	2.0	3291	7	-1	2	-30	15
21	CC(C)CN1CCN(Cc2cnc(-c3ccc(Cl)cc3)nc2)CC1CCO (centres undefined)	0.9	4621	9	6	1	-22	3
22	CC(C)(CNC(=O)c1cc([N+](=O)[O-])ccc1N1CCC(Cc2ccccc2)CC1)N1CCOCC1	3.9	3986	-8	x	6	-2	-5
23	COC(=O)c1ccccc1NC(=O)NCc1ccc2c(c1)OCO2	2.7	4537	8	1	5	-9	1

# Next entries:
25: c1cc(CCCc2ccncc2)ccn1
26: O=C(c1cc(-c2ccc(Cl)cc2Cl)on1)N1CCCCCC1
27: COCc1cc(CN2CCCC(C(=O)c3cccc(C(F)(F)F)c3)C2)ccc1OC (centres undefined)
28: COC(=O)COc1ccc(NC(=O)C2CCCO2)cc1 (centres undefined)
29: O=C(CSCc1ccc(Cl)cc1)N1CCCCC1
30: CN(C)S(=O)(=O)c1cccc(NC(=O)c2c[nH]c3ccccc23)c1
31: CCc1ccc(C(=O)c2cnc3ccc(OC)cc3c2N2CCN(CC)CC2)cc1
32: CCC1Sc2ccc(S(=O)(=O)CCC(=O)NCc3cccs3)cc2NC1=O (centres undefined)
assay / entry,25,26,27,28,29,30,31,32
Sa RN4220 lethal,-1.4,6.2,4.0,-5.0,4.8,2.1,-2.9,-3.5
Bead autofluor,5778,5695,3106,4912,2462,3984,6214,4119
Mtb hypoxia inh,6,6,6,-4,x,-2,x,7
BJeLR viability,x,2,3,0,5,1,-3,11
Mtb hypoxia inh growth,1,5,-1,-12,x,-2,x,4
PrP UTR inh,-15,-109,-15,-11,-76,-21,7,-24
ugtP null kill,-1,15,2,-6,1,-5,5,12

33: COc1cccc(CNC(=O)CCS(=O)(=O)c2ccc3c(c2)NC(=O)CO3)c1
34: CCN1C(=O)c2cccc3c(S(=O)(=O)Nc4nc(C)cs4)ccc1c23
35: Cc1cc(NC(=O)CCC(=O)N(CC(=O)NC2CCCC2)c2ccc(C(C)C)cc2)no1
36: C=CCn1c(O)c(C(C)=Nc2ccc(C(=O)OCC)cc2)c(=O)[nH]c1=O
37: Cc1ccnc(NC(=O)c2cccc(NC(=O)Cc3ccccc3)c2)c1
38: Cc1ccc2[nH]c(C(=O)O)c(-c3ccccc3)c2c1
39: Oc1cc2ccccc2nc1-c1ccccc1Cl
40: COC(=O)c1ccc(N=C2S/C(=C\c3cc(C)n(-c4cccnc4)c3C)C(=O)N2C)cc1
assay / entry,33,34,35,36,37,38,39,40
Sa RN4220 lethal,4.2,28,5.1,6.8,1.4,10,-1.5,-28
Bead autofluor,5196,4600,3920,2805,4757,3267,3678,2523
Mtb hypoxia inh,8,x,10,7,-12,x,-1,0
BJeLR viability,9,5,2,4,1,-6,12,-1
Mtb hypoxia inh growth,4,x,3,12,-1,x,2,13
PrP UTR inh,-9,-24,-17,-23,-26,1,-4,-8
ugtP null kill,7,95*,-7,-2,0,-13,20,31

41: CCNCc1nc2cc(OC)c(OC)cc2c(=O)[nH]1
42: CCOC(=O)c1cc2c(ccn2C)n1Cc1ccccc1Cl
43: Cc1nc(-c2cccc(S(=O)(=O)N3CC(C)OC(C)C3)c2)cs1 (centres undefined)
44: COCCNC(=O)c1cc2cc(Br)cc(OC)c2oc1=O
45: O=C(Cn1nnc2ccccc21)NN=C/C=C/c1ccccc1
46: C=CCn1c(SCCN2CCCCC2)nc2c1c(=O)[nH]c(=O)n2C
47: COc1ccc(CCN2CC(C(=O)NCc3ccccc3)CCC2=O)cc1 (centres undefined)
48: Cc1cccc(NS(=O)(=O)c2cc3c4c(c2)CCN4C(=O)CC3)c1C
assay / entry,41,42,43,44,45,46,47,48
Sa RN4220 lethal,7.1,-7.3,2.3,3.3,0.6,-6.2,1.2,7.4
Bead autofluor,8134,4293,2834,21622*,x,4865,5847,5061
Mtb hypoxia inh,1,-11,10,7,-1,0,3,1
BJeLR viability,-16,25,5,-3,x,6,1,5
Mtb hypoxia inh growth,-6,-10,8,5,6,-2,1,-4
PrP UTR inh,-8,-3,-26,-23,x,-5,10,-21
ugtP null kill,13,-5,-14,2,-2,0,-1,6

49: CC1CCCN(CCCNS(=O)(=O)c2cc(Br)cc3c2N(C(=O)C2CC2)CC3)C1 (centres undefined)
50: Cc1c(C(=O)Nc2cc(S(=O)(=O)N3CCOCC3)ccc2N2CCN(C)CC2)oc2ccccc12
51: CCc1[nH]c(=S)c(C#N)c2c1CCCC2
52: CCOC(=O)C1CCN(C(=O)CCn2c(=O)c3cccn3c3cccnc32)CC1
53: O=C(Nc1ccc(N2CCN(C(=O)c3ccco3)CC2)cc1)c1ccccc1F
54: Cc1cccc2sc(N(CCCN(C)C)C(=O)CCS(=O)(=O)c3ccccc3)nc12
55: COCCN(C(=O)COC(=O)c1ccccc1Nc1ccccc1)c1c(N)n(Cc2ccccc2)c(=O)[nH]c1=O
56: CCc1ccccc1N/N=C(/C)c1c(O)cc(C)oc1=O
assay / entry,49,50,51,52,53,54,55,56
Sa RN4220 lethal,0.7,5.1,2.0,3.2,0.6,-1.1,4.0,x
Bead autofluor,3747,4850,2207,5550,3659,31981*,5702,4036
Mtb hypoxia inh,-7,-13,12,11,-2,0,8,x
BJeLR viability,-9,0,-5,-4,-18,-7,-13,14
Mtb hypoxia inh growth,1,-5,-1,4,10,-8,11,x
PrP UTR inh,-2,-11,3,9,-5,10,-20,-12
ugtP null kill,3,-5,4,0,-8,0,7,x

57: O=C(NCCC(=O)N1CCN(c2cccc(Cl)c2)CC1)c1ccc(Br)cc1
58: COc1ccc(Cn2cnc3sccc3c2=O)cc1
59: CCc1ccc(OCC(=O)NCCc2ccc3c(c2)OCCO3)cc1
60: O=C1[C@H]2[C@@H](c3ccc(F)cc3)N3C(=O)N(c4cccc(Br)c4)C(=O)[C@@]3(Cc3ccc(Cl)cc3)[C@H]2C(=O)N1C1CCCCC1
61: CCCCn1c(N)c(N(CC(C)C)C(=O)c2cccc(-n3cnnn3)c2)c(=O)[nH]c1=O
62: O=S(=O)(c1ccccc1)N1CCN(c2ncccn2)CC1
63: CCN(CC)CCN1C(=O)C(=O)/C(=C(/O)c2ccc(OC)c(OC)c2)C1c1ccccn1 (centres undefined)
64: CC(Oc1ccc(Cl)cc1Cl)C(=O)Nc1cccc(O)c1 (centres undefined)
assay / entry,57,58,59,60,61,62,63,64
Sa RN4220 lethal,8.9,8.0,4.8,x,-1.3,-1.3,0.1,-1.3
Bead autofluor,2957,2498,8072,2982,4770,22296*,2393,4218
Mtb hypoxia inh,5,22,9,x,4,1,x,5
BJeLR viability,x,x,x,-4,-4,0,2,-2
Mtb hypoxia inh growth,0,15,7,x,13,7,x,-2
PrP UTR inh,-2,-30,-40,7,-17,1,-23,-32
ugtP null kill,6,-1,8,x,-5,-3,14,-27

65: COc1ccc(NC2CCCN(C(=O)c3ccccc3N3CCOCC3)C2)cc1OC (centres undefined)
66: O=C(NCCS(=O)(=O)N1CCCCC1)c1ccccc1
67: COC(=O)C1=C(c2cc3ccccc3o2)CC2CCC1N2C(=O)NCCCOC(C)C (centres undefined)
68: Cc1sc2ncnc(N3CCC(C(=O)Nc4ccccc4C(C)(C)C)CC3)c2c1C
69: CC#CCN1c2ccccc2[C@]23C[C@@H](C(=O)OC)N=C2NC(C(=O)OC)=C(C(=O)OC)[C@H]13
70: CCOc1ccc(S(=O)(=O)n2cnc3ccccc32)cc1
71: O=C(NC1CC1)c1cc(=S)[nH]c2ccccc12
72: O=C(NCc1ccccc1)C1C(=O)N(Cc2ccccc2)C(=O)C1C1(O)CCCC1 (centres undefined)
73: Cc1ccc(Nc2c([N+](=O)[O-])ccc3nonc23)c(C)c1
74: Fc1ccc(-c2csc3nnc(SCc4cccnc4)n23)cc1
75: COCCN1C(=NCCCOC(C)C)NC(c2ccccc2)C(C(=O)OC)=C1C (centres undefined)
assay / entry,65,66,67,68,69,70,71,72,73,74,75
Sa RN4220 lethal,-3.9,1.2,8.5,-1.7,x,2.5,2.0,3.6,4.2,2.9,3.9
Bead autofluor,5578,x,x,5780,3730,3569,3480,8417,4051,10175,x
Mtb hypoxia inh,-7,-9,5,-8,x,-2,9,2,14,1,-6
BJeLR viability,-2,16,x,-9,-9,-5,x,-7,-8,-10,x
Mtb hypoxia inh growth,2,-8,17,4,x,1,14,9,4,4,-1
PrP UTR inh,-4,-20,x,-13,-3,-24,-13,-21,-8,15,x
ugtP null kill,-5,6,9,-1,x,4,-1,-4,3,1,-2
